# HIV Env fusion: inhibitors of HIV-1 Env-driven cell-cell fusion, primary screen, HeLa-JRFL effector, CEM21 target cells, luciferase. inhibition, % at 12.3 µM. hit rate 1.1% among 360,000. AID 651610, 2012;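 active = mean replicate inhibition score of at least 50 and every replicate individually at or above 50; inconclusive = only one of the two criteria met; inactive = mean below 50 and not all replicates reaching 50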;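 note: 0% = plate neutral controls and 100% = maraviroc near 300 nM; one replicate is shown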
# An asterisk follows results filed as active; ? = inconclusive; & = joins results of further samples; [ ] = remark or other dose.
SMILES,HIV Env fusion
CCNC(=O)c1cc2c(c(-c3cccc(-c4ccccc4F)c3)n1)[C@H](CCO)N(C(=O)CC1CC1)C2,-17[16.7 µM]
COc1cc2c(c(OC)c1OC)[C@@]1(c3ccccc3)CCCC[C@H]1[C@@H]2NC(=O)C(F)(F)F,87*
COC(=O)C1=C(C)N(Cc2ccc(C(F)(F)F)cc2)C(=NCc2ccccc2)NC1c1ccccc1C(F)(F)F (stereo not drawn),21
CN(C)C(=O)c1cc2c(c(-c3cccc(-c4ccccc4F)c3)n1)[C@H](CCO)N(S(C)(=O)=O)C2,19[16.7 µM]
CC(C)NC(=O)N(C)C[C@H]1OCCCC[C@H](C)Oc2ccc(N(C)C)cc2C(=O)N([C@H](C)CO)C[C@@H]1C,-11[16.7 µM]
C[C@@H]1CN([C@H](C)CO)C(=O)CCCn2cc(nn2)CO[C@@H]1CN(C)C(=O)Nc1ccc(F)cc1,-6[16.7 µM]
CO[C@@H]1CC[C@@H]2CCN(C)C(=O)C[C@@H](c3ccccc3)CN(C)C(=O)c3cccc(C#N)c3OC[C@@H]1O2,13[16.7 µM]
O=C(C[C@H]1CC[C@H]2[C@@H](COC[C@@H](O)CN2S(=O)(=O)c2ccccc2F)O1)NCc1ccccc1F,33[16.7 µM]
CCCC(=O)Nc1ccc2c(c1)C(=O)N(C)C[C@@H](OC)[C@@H](C)CN(CC1CCCC1)[C@@H](C)CO2,3[16.7 µM]
COc1ccccc1NC(=O)Nc1ccc2c(c1)C(=O)N(C)C[C@@H](OC)[C@@H](C)CN(C)[C@H](C)CO2,-5[16.7 µM]
C[C@H]1CN([C@@H](C)CO)S(=O)(=O)c2ccc(C3=CCCC3)cc2O[C@H]1CN(C)S(C)(=O)=O,11[16.7 µM]
CCCC#Cc1ccc2c(c1)O[C@@H](CN(C)Cc1ccccc1)[C@H](C)CN([C@H](C)CO)S2(=O)=O,15[16.7 µM]
Nc1ncnc2c1ncn2[C@@H]1O[C@H](C(=O)N[C@@H](CCc2ccccc2)C(=O)N2CCN(C(=O)N3CCCCC3)CC2)[C@@H](O)[C@H]1O,-22
C[C@@H]1CN([C@H](C)CO)C(=O)c2ccccc2-c2ccccc2CO[C@H]1CN(C)C(=O)Nc1ccccc1C(F)(F)F,-28[16.7 µM]
Cc1cc(-c2cc(NC(=O)Cc3c[nH]c4ccccc34)ccc2Nc2cccnc2)ccc1F,4
COc1cc(CN2CC3(CCN(C(=O)CN4CCOCC4)CC3)c3c(n(C)c4cc(OC)ccc34)[C@H]2CO)cc(OC)c1,3[16.7 µM]
NC(=O)[C@@H]1CCCN1C(=O)[C@@H](Cc1ccccc1)NC(=O)[C@H]1O[C@@H](n2ccc(N)nc2=O)[C@H](O)[C@@H]1O,6
C[C@H](NC(=O)C[C@@H]1C[C@@H]2c3cc(NS(=O)(=O)c4ccc(F)cc4)ccc3O[C@@H]2[C@@H](CO)O1)c1ccccc1,14[16.7 µM]
C[C@@H]1CN([C@H](C)CO)C(=O)c2cc(NC(=O)Nc3ccc4c(c3)OCO4)ccc2O[C@@H]1CN(C)Cc1ccncc1,10[16.7 µM]
CO[C@@H]1CN(C)C(=O)c2cc(NC(=O)C3CC3)ccc2OC[C@@H](C)N(CCC(F)(F)F)C[C@@H]1C,-5[16.7 µM]
COc1ccccc1NC(=O)Nc1ccc2c(c1)OC[C@@H](C)N(Cc1ccccc1C(=O)O)C[C@@H](C)[C@H](OC)CN(C)C2=O,46[16.7 µM]
COC(=O)[C@]12C[C@H](CC(=O)NCc3cccs3)C(=O)N(CCC3=CCCCC3)C1=C[C@H](COCc1ccccc1)O[C@@H]2C,-28
CO[C@H]1CN(C)C(=O)c2cc(NC(=O)Nc3cc(F)ccc3F)ccc2OC[C@H](C)NC[C@H]1C,3[16.7 µM]
CO[C@H]1CC[C@H]2CCOc3c(C#N)cccc3C(=O)N(C)C[C@H](C)C(=O)N(C)C[C@@H]1O2,8[16.7 µM]
CNC[C@@H]1OCCCC[C@@H](C)Oc2ccc(NS(=O)(=O)c3ccc(Cl)cc3)cc2C(=O)N([C@@H](C)CO)C[C@H]1C,8[16.7 µM]

# Continued.
SMILES,HIV Env fusion
CN1CCN(C(=O)c2cc3c(c(-c4cccc(-c5cccc(C(=O)N(C)C)c5)c4)n2)[C@@H](CCO)N([S@](=O)C(C)(C)C)C3)CC1,-7[16.7 µM]
COc1cccc(-c2cnc3c(c2)C(=O)N([C@H](C)CO)C[C@H](C)[C@@H](CN(C)CC2CCCC2)O3)c1,-8[16.7 µM]
COc1ccc(-n2c(CSc3ccc(Cl)cc3)n[nH]c2=S)cc1,-6
C[C@@H](NC(=O)[C@@H]1[C@@H](CO)[C@@H]2Cn3c(ccc(-c4ccccc4F)c3=O)[C@H]1N2C)c1ccccc1,18[16.7 µM]
C[C@@H]1CCCCO[C@H](CN(C)C)[C@@H](C)CN([C@@H](C)CO)C(=O)c2cc(NS(=O)(=O)c3ccc(F)cc3)ccc2O1,-24[16.7 µM]
COc1ccc(C#Cc2cccc(-c3nc(C(=O)O)cc4c3[C@H](CCO)N(S(=O)C(C)(C)C)C4)c2)cc1OC (stereo partly drawn),7[16.7 µM]
COc1cccc(-c2cnc3c(c2)C(=O)N([C@H](C)CO)C[C@@H](C)[C@@H](CN(C)CC2CC2)O3)c1,4[16.7 µM]
COC(=O)c1cc2c(c3c4cc(C)ccc4n(S(=O)(=O)c4ccc(OC)cc4)c13)C(=O)N(Cc1ccccc1)C2,0
C[C@H](CO)N1C[C@H](C)[C@H](CN(C)C(=O)Nc2cccc(C(F)(F)F)c2)OCc2ccccc2-c2ccccc2C1=O,13[16.7 µM]
O=C(C[C@@H]1CC[C@@H](NC(=O)Cc2cccnc2)[C@@H](CO)O1)Nc1ccc(-c2ccccc2)cc1,26[16.7 µM]
C[C@H]1CN([C@@H](C)CO)S(=O)(=O)c2ccc(C#CC3CC3)cc2O[C@H]1CN(C)Cc1cncnc1,0[16.7 µM]
COC(=O)C1=C(C)N(Cc2cccc(C(F)(F)F)c2)C(=NCc2ccc3c(c2)OCO3)NC1c1ccc(F)cc1 (stereo not drawn),14
CCCC(=O)Nc1ccc2c(c1)C(=O)N(C)C[C@H](OC)[C@@H](C)CN(CC1CCCC1)[C@H](C)CO2,3[16.7 µM]
C[C@H](CO)N1C[C@H](C)[C@H](CN(C)C(=O)Nc2ccccc2)OCc2cn(nn2)CCCC1=O,-5[16.7 µM]
CNC(=O)C[C@H]1CC[C@H]2[C@@H](COc3ccc(NC(=O)Nc4ccc(C#N)cc4)cc3C(=O)N2C)O1,-6[16.7 µM]
CO[C@@H]1CN(C)C(=O)c2ccc(NC(=O)c3ccc(F)cc3)cc2OC[C@H](C)N(C(=O)CC2CC2)C[C@@H]1C,18[16.7 µM]
COC(=O)C1=C(C)N(Cc2cccc(C(F)(F)F)c2)C(=NCC2CC2)NC1c1ccccc1 (stereo not drawn),3
COc1ccc(CN(C)C[C@@H]2Oc3ccc(NC(=O)c4ccncc4)cc3CC(=O)N([C@@H](C)CO)C[C@@H]2C)cc1,-23[16.7 µM]
O=C(C[C@H]1CC[C@H]2[C@@H](COC[C@H](O)CN2C(=O)c2ccncc2)O1)NCc1cccc(F)c1,3[16.7 µM]
Cc1ccccc1S(=O)(=O)N1CCCc2nc(-c3ccc(F)cc3)ccc21,7
O=C(Nc1ccc2c(c1)[C@H]1C[C@H](CC(=O)N3CCCCC3)O[C@H](CO)[C@H]1O2)C1CCOCC1,-17[16.7 µM]
CC(=O)N1CCN(c2ccc(N3CCN(C(C)=O)[C@@H](C)C3)c(C)c2)[C@@H](C)C1,3
CO[C@@H]1CN(C)C(=O)c2ccc(NC(=O)NC(C)C)cc2OC[C@H](C)N(C)C[C@H]1C,3[16.7 µM]
CO[C@@H]1CN(C)C(=O)c2cc(NS(=O)(=O)c3cn(C)cn3)ccc2OC[C@H](C)N(CC2CC2)C[C@@H]1C,1[16.7 µM]
CO[C@H]1CN(C)C(=O)c2cc(C#N)ccc2OCC[C@H]2CC[C@@H](OC)[C@@H](CN(C)C(=O)[C@H]1C)O2,24[16.7 µM]

# Reformatted: results already given.
Cc1ccccc1S(=O)(=O)N1CCCc2nc(-c3ccc(F)cc3)ccc21
  HIV Env fusion: 7
COC(=O)c1cc2c(c3c4cc(C)ccc4n(S(=O)(=O)c4ccc(OC)cc4)c13)C(=O)N(Cc1ccccc1)C2
  HIV Env fusion: 0
COC(=O)C1=C(C)N(Cc2cccc(C(F)(F)F)c2)C(=NCC2CC2)NC1c1ccccc1 (stereo not drawn)
  HIV Env fusion: 3
CCCC(=O)Nc1ccc2c(c1)C(=O)N(C)C[C@H](OC)[C@@H](C)CN(CC1CCCC1)[C@H](C)CO2
  HIV Env fusion: 3[16.7 µM]

# Next structures.
SMILES,HIV Env fusion
COc1ccc(S(=O)(=O)N(C)C[C@@H]2Oc3ncc(-c4ccccc4)cc3C(=O)N([C@H](C)CO)C[C@@H]2C)cc1,5[16.7 µM]
CC(C)CC#Cc1ccc2c(c1)O[C@@H](CN(C)C(=O)C1CC1)[C@H](C)CN([C@H](C)CO)S2(=O)=O,22[16.7 µM]
FC(F)(F)c1ccc(Cl)c(CN2CCN(c3ncc(Cc4ccccc4)cn3)CC2)c1,-22
C[C@@H]1CN([C@@H](C)CO)C(=O)c2cc(NC(=O)Nc3ccc4c(c3)OCO4)ccc2O[C@H]1CN(C)Cc1ccncc1,8[16.7 µM]
C[C@H]1CN([C@@H](C)CO)C(=O)c2cc(-c3ccc(C#N)cc3)cnc2O[C@@H]1CN(C)CC1CCCCC1,21[16.7 µM]
O=C(N[C@@H]1CC[C@H](CCNS(=O)(=O)c2ccc(Cl)cc2)O[C@H]1CO)c1ccccn1,2[16.7 µM]
Cc1noc(C)c1NC(=O)NCC[C@H]1CC[C@@H](NC(=O)c2ccc(F)cc2)[C@@H](CO)O1,15[16.7 µM]
O=S1(=O)N[C@@H](Cc2ccccc2)COc2cc(N3CCCCC3)ccc21,-26
C[C@H](CO)N1C[C@H](C)[C@H](CN(C)Cc2ccc(Cl)c(Cl)c2)Oc2c(NS(C)(=O)=O)cccc2C1=O,4[16.7 µM]
CO[C@H](C(=O)N(C)C[C@@H]1OCc2ccccc2-c2c(n(C)c3ccccc23)C(=O)N([C@@H](C)CO)C[C@@H]1C)c1ccccc1,49[16.7 µM]
CO[C@H]1CC[C@@H]2CCOc3c(C#N)cccc3C(=O)N(C)C[C@H](OC)[C@H](C)C(=O)N(C)C[C@@H]1O2,-32&14[16.7 µM]
CCCNC(=O)N[C@H]1C=C[C@H](CC(=O)NCCc2ccccc2)O[C@H]1CO,-7[16.7 µM]
COc1ccccc1NC(=O)N[C@H]1CC[C@@H](CCn2cc(C3(O)CCCC3)nn2)O[C@@H]1CO,-2[16.7 µM]
COc1ccc(C[C@@H]2CCn3cc(nn3)COC[C@@H](c3ccccc3)NC2=O)cc1,0[16.7 µM]
CO[C@@H]1CC[C@H]2CCOc3c(C#N)cccc3C(=O)N(C)C[C@H](C)C(=O)N(C)C[C@@H]1O2,-19[16.7 µM]
COc1ccc(S(=O)(=O)N2CC[C@@H]3[C@H](CO)Nc4ccc(C#Cc5cccc(OC)c5)cc4[C@@H]32)cc1,26[16.7 µM]
CO[C@@H]1CN(C)C(=O)c2cc(NS(=O)(=O)c3c(C)noc3C)ccc2OC[C@@H](C)NC[C@@H]1C,-19[16.7 µM]
Cc1cc(NC(=O)Cc2cn(Cc3ccccc3)c3ccccc23)ccc1Oc1cccnc1,-11
CO[C@H]1CN(C)C(=O)c2ccc(NC(=O)C3CCC3)cc2OC[C@@H](C)N(CC2CCCCC2)C[C@@H]1C,58*[16.7 µM]
COC(=O)c1cc2c(c3c4cc(F)ccc4n(S(=O)(=O)c4cccc(C)c4)c13)C(=O)N(Cc1ccc(C(F)(F)F)cc1)C2,5
C[C@H](O)C#Cc1cnc2c(c1)C(=O)N([C@H](C)CO)C[C@H](C)[C@@H](CN(C)C(=O)Cc1ccncc1)O2,6[16.7 µM]
O=C(Nc1ccc2c(c1)[C@H]1C[C@H](CC(=O)N3CCc4ccccc4C3)O[C@H](CO)[C@H]1O2)C1CCOCC1,?
CCCC(=O)Nc1ccc2c(c1)C(=O)N(C)[C@H]1CC[C@@H](CC(=O)NCc3cccc(F)c3)O[C@H]1CO2,-23[16.7 µM]
COCCNC(=O)C[C@H]1CC[C@H]2[C@@H](COC[C@@H](O)CN2C(=O)c2cc(Cl)cc(Cl)c2)O1,-6[16.7 µM]
Nc1nc2c(ncn2[C@@H]2O[C@H](C(=O)N[C@H](Cc3ccccc3)C(=O)O)[C@@H](O)[C@H]2O)c(=O)[nH]1,-17
Nc1ccn([C@@H]2O[C@H](C(=O)N[C@H](Cc3ccccc3)C(=O)NCc3cccc4c3OCO4)[C@@H](O)[C@H]2O)c(=O)n1,3
COCC#Cc1ccc2c(c1)O[C@H](CN(C)Cc1ccc3c(c1)OCO3)[C@H](C)CN([C@@H](C)CO)S2(=O)=O,17[16.7 µM]

# 2 entries picked at random from the list so far:
SMILES,HIV Env fusion
O=C(N[C@@H]1CC[C@H](CCNS(=O)(=O)c2ccc(Cl)cc2)O[C@H]1CO)c1ccccn1,2[16.7 µM]
Nc1nc2c(ncn2[C@@H]2O[C@H](C(=O)N[C@H](Cc3ccccc3)C(=O)O)[C@@H](O)[C@H]2O)c(=O)[nH]1,-17

# Screening results as filed in PubChem.

# The list is partial, so the mix of outcomes need not match the whole.
